Screening data as filed in PubChem BioAssay.
Sa RN4220 lethal – kills Staphylococcus aureus RN4220; hit rate 0.33% among 330,000; S. aureus RN4220 growth, OD600, 16 h; AID 1259311; inhibition, % (concentration not given with the values);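 active = z-score of -3 or lower and OD600 up to 0.18 on both plates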;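 note: plate controls were untreated cells for no effect and reference antibiotic for full effect; stock transfer was 100 nL into about 80 µL; one replicate is shown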
BJeLR lethal – kills HRASV12-expressing BJeLR cells; BJeLR (HRASV12) viability, CellTiter-Glo ATP luminescence, 48 h; reference of the scale not given here; inhibition, % (concentration not given with the values); hit rate 0.17% among 300,000; AID 1554;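 active = replicate mean above 50%; inconclusive = above 50% but judged a plate artefact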;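 note: 50 nL library stock added to about 25 µL; numbers are from one replicate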
PrP 5UTR inh – inhibition of PrP 5' UTR reporter expression | cell-based PrP 5' UTR mRNA reporter, plate reader | inhibition, % (no concentration beside the values) | hit rate 0.35% among 340,000;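 active = every replicate at 50% or more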;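 note: 0 = median of the neutral control wells; tested in H4 reporter cells; numbers are from one replicate; inactives centre near -14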
ugtP null kill – growth inhibition of S. aureus ugtP deletion strain. hit rate 0.54% among 330,000. AID 1259309. S. aureus RN4220 ugtP deletion, OD600 growth, 16 h; some inactives read as strong as hits. growth inhibition, % (test concentration not listed);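 active = z-score under -3 and OD600 up to 0.15 on both plates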;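 note: plate controls were untreated wells for no effect and antibiotic for full effect; wells of about 80 µL received 100 nL stock; the first replicate is given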
Autofluor counter – compound fluorescence in toxin protease inhibitor counterscreen. compound autofluorescence counterscreen, microsphere flow cytometry; active compounds read high. fluorescence intensity (concentration not given with the values). hit rate 3.1% among 360,000;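 active = at least 3 SD above the mean of all compounds, about 16000 in these data; inconclusive = too few beads counted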;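 note: 100 nL of 1 mM stock went into each well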
Mtb hypoxia rep – inhibitors of hypoxia-regulated fluorescent reporter in Mycobacterium tuberculosis; M. tuberculosis hypoxia-regulated fluorescent reporter, fluorescence; fluorescence inhibition, % (no concentration beside the values); hit rate 0.1% among 300,000;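 active = 35 to 45% if threefold the growth effect, above 45% if 1.5-fold the growth effect; inactive = the rest, general growth blockers included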;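 note: wells of about 50 µL received 100 nL stock; 0% = vehicle wells and 100% = reference inhibitor wells; whole bacteria with a GFP reporter of the hypoxia response; strong numbers were not always called active; many hits fall short of the cut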
Mtb hypoxia rep growth – second read-out of Mtb hypoxia rep, no call of its own (marks repeat the call); growth inhibition, %; measured here: M. tuberculosis growth (absorbance);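 0% = vehicle and 100% = reference antibiotic; read after six days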
An asterisk follows results filed as active; ? = inconclusive; / = not tested or not shown. The order is random, and some 4% of all compounds hit somewhere here.

SMILES | Sa RN4220 lethal | BJeLR lethal | PrP 5UTR inh | ugtP null kill | Autofluor counter | Mtb hypoxia rep | Mtb hypoxia rep growth
Cc1ccc(Sc2ncccc2C(=O)NCC(c2ccc(F)cc2)N2CCOCC2)c(C)c1 (stereo unspecified) | 2.9 | 2 | -9 | -2 | 4456 | -6 | -5
Cc1ccc(S(=O)(=O)/N=C(/Nc2ccc([N+](=O)[O-])cc2)c2ccccc2)cc1 | -2.7 | 1 | -23 | -7 | 3120 | 0 | 0
COc1ccc(NC(=O)Cn2c(=O)n(CC3CCCO3)c(=O)c3ccccc32)c(OC)c1 (stereo unspecified) | 3.0 | -15 | -12 | -6 | 3790 | -3 | -2
Cc1ccc(C2C(C(=O)c3ccco3)=C(O)C(=O)N2c2ncccn2)cc1 (stereo unspecified) | 3.3 | 8 | -9 | 7 | ? | -2 | 13
CC(C)CCn1c(SC(C)C(=O)NC2CC2)nc2ccccc2c1=O (stereo unspecified) | 2.7 | -2 | -17 | 3 | / | 9 | 5
O=C1Nc2cc(Cl)c(Cl)cc2N(O)N1c1ccccc1Cl | 4.5 | 1 | -6 | 16 | 2230 | 11 | 6
CCCCOC(=O)Nc1ccc(N2CCOCC2)cc1 | 4.4 | 6 | -25 | 0 | 20906* | 7 | 15
COc1ccc(OCC(=O)N2CCN(C(=O)c3cccc(F)c3)CC2)cc1 | -22 | 6 | -2 | -7 | 2397 | 3 | 13
COc1ccc(C(=O)NNC(=O)c2ccccn2)cc1 | 6.9 | 23 | 38 | 2 | 2480 | 7 | -3
COC(=O)c1cc(C#N)c(SCc2ccccc2)nc1C | 7.2 | 7 | 3 | -10 | 2810 | / | /
COc1cc(NC(=O)CCN2CCN(Cc3ccccc3)CC2)cc(OC)c1 | 3.4 | -5 | -17 | -6 | 8458 | 11 | 13
Cc1ccc2nc(N(CCCN(C)C)C(=O)c3ccc4c(c3)CCCC4)sc2c1 | -2.8 | -2 | -1 | -22 | 9640 | 17 | 10
COc1ccc(C=Nn2cnnc2)cc1COc1ccccn1 | 2.2 | / | / | 4 | / | 6 | 9
COc1ccc(NC(=O)NCCCN2CCCC2=O)c(OC)c1 | -0.4 | 0 | -16 | -5 | 8981 | -6 | -4
COc1ccc(C2=NNC(c3ccco3)=Nc3ccc(F)cc32)cc1 | -1.2 | 4 | -18 | -11 | 3862 | 0 | 5
COc1cccc(CNC(=O)c2ccccc2C(=O)NC(C)(C)C(=O)NCc2cccc(OC)c2)c1 | 3.2 | 3 | -11 | 6 | 4690 | 3 | -5
CN(C)c1ccc(NC(=O)c2ccncc2)c2ccccc12 | -0.5 | -4 | -15 | 4 | 2278 | 19 | 8
Cc1cccc(Oc2ccccc2N)c1 | 4.2 | -2 | -14 | 10 | 8210 | 10 | 2
CCOC(=O)N1CCN(C(=O)c2cccc(S(=O)(=O)Nc3ccccc3Cl)c2)CC1 | 1.8 | / | -25 | 0 | 4713 | 9 | 0
CC(=NCc1cccnc1)c1c(O)n(-c2ccc(C)cc2)c(=O)[nH]c1=O | 0.1 | 1 | -18 | 3 | 8276 | 0 | 0
CC(NC(=O)c1c(O)c2ccccc2[nH]c1=O)c1ccccc1 (stereo unspecified) | 2.3 | 1 | -11 | -7 | 3433 | 11 | 3
Cc1nnc(SCc2cccc3ccccc23)n(N)c1=O | 6.8 | 10 | -19 | 7 | 9601 | 8 | -2
COc1cc(C(=O)Nc2ccc3nc(N4CCOCC4)sc3c2)cc(OC)c1OC | 5.7 | / | -28 | 3 | 3595 | 10 | 1
COc1ccc(-c2csc(N(C)C(=O)c3cccs3)n2)cc1 | 9.8 | -6 | -61 | 3 | 3970 | -1 | 12
Cc1csc(=O)n1CCC(=O)OC(C)C(=O)Nc1ccc(N2CCOCC2)cc1 (stereo unspecified) | 1.4 | / | -23 | 5 | 8552 | 9 | -2
CN(C)C(=O)COC(=O)c1ccccc1OCC(=O)Nc1ccc(SC(F)F)cc1 | 1.9 | -2 | -46 | 4 | 8106 | 13 | 8
c1cc2c(cc1-c1cnc3n1CCC3)OCCO2 | 3.7 | -8 | -20 | 8 | 8037 | 4 | 3
O=C(COc1ccc(Cl)cc1)Nc1ccccc1N1CCOCC1 | 1.9 | 2 | / | 1 | / | 0 | 5
CCS(=O)(=O)N1CCN(c2ccccn2)CC1 | -6.2 | -1 | 1 | -11 | 26268* | -9 | -7
COc1ccc(N2C(=O)C3CCCN3C2c2ccccc2F)cc1 (stereo unspecified) | 0.5 | 1 | -11 | 9 | 4470 | / | /
Clc1nc(-c2ccccc2)ncc1Oc1ccccc1 | -4.6 | -5 | / | 21 | 3666 | -11 | -3
Cn1c(CNC(=O)c2ccco2)nnc1SCC(=O)Nc1cccc(F)c1 | 2.5 | 7 | -20 | 10 | 4861 | -3 | 8
Cc1cccnc1NC(=O)Nc1cccc(C(F)(F)F)c1 | 6.9 | 2 | -31 | 1 | 9125 | 10 | 6
Cc1nnc(SCC(=O)Nc2cccc(C(F)(F)F)c2)n1Cc1ccco1 | 4.2 | -2 | -5 | 7 | 3531 | / | /
COc1ccc(C=Nc2cccc3c(=O)[nH][nH]c(=O)c23)c2ccccc12 | 3.2 | 1 | -4 | -17 | 11006 | -3 | 15
CC(=O)NC12CC3CC(CC(CC(=O)O)(C3)C1)C2 | -0.3 | -4 | -9 | -6 | 21352* | -5 | 3
CCOC(=O)Cc1c(Sc2ccccc2)c2cc(C)ccc2n1C | / | 6 | -12 | / | 2473 | / | /
CCn1nc(C)cc1-c1nnc(Sc2ncc([N+](=O)[O-])s2)n1C | 48 | 34 | -4 | 91* | 3741 | 16 | 10
COc1cc(OC)c(C(=O)OCC(=O)Nc2nnc(-c3ccccc3)o2)cc1OC | 3.2 | / | -60 | -2 | 3718 | -4 | 1
CCn1cc(C(=O)N2CCN(c3ccc(F)cc3)CC2)c2cc(OC)c(OC)cc2c1=O | 1.9 | -1 | -10 | 10 | 4413 | 5 | -1
COc1ccc(NC(=O)c2ccc(COc3ccc(C)cc3)o2)cc1 | 8.4 | 8 | -13 | 11 | 4326 | 9 | 2
O=C1C2C3c4ccccc4C(c4ccccc43)C2C(=O)N1Cc1cccnc1 (stereo unspecified) | -1.2 | -5 | -11 | 6 | 3306 | 2 | -2
N#CC1=C(N)NC(SCC(=O)c2ccc(Br)cc2)=C(C#N)C12CCCCC2 | 15 | 13 | -5 | -7 | 2148 | -3 | 0
Cc1c(C(=O)N2CCN(c3ccc(F)cc3)CC2)sc2nc3n(c(=O)c12)CCC3 | 5.1 | 12 | -7 | -3 | 5925 | 17 | 6
COc1ccc(C(=O)NNC(=O)CN2CCC(n3nnc4cc(C)ccc43)CC2)cc1 | 3.0 | 7 | -5 | -3 | 10113 | 4 | -4

Compound profiles (already shown):
Shown for COc1ccc(C=Nn2cnnc2)cc1COc1ccccn1 = Sa RN4220 lethal = 2.2; BJeLR lethal = /; PrP 5UTR inh = /; ugtP null kill = 4; Autofluor counter = /; Mtb hypoxia rep = 6; Mtb hypoxia rep growth = 9
Shown for COc1ccc(C(=O)NNC(=O)CN2CCC(n3nnc4cc(C)ccc43)CC2)cc1 = Sa RN4220 lethal = 3.0; BJeLR lethal = 7; PrP 5UTR inh = -5; ugtP null kill = -3; Autofluor counter = 10113; Mtb hypoxia rep = 4; Mtb hypoxia rep growth = -4

Other results follow.
SMILES | Sa RN4220 lethal | BJeLR lethal | PrP 5UTR inh | ugtP null kill | Autofluor counter | Mtb hypoxia rep | Mtb hypoxia rep growth
Cc1ccc(N2C(=O)NC(=O)/C(=C\c3cnc(-c4ccccc4)nc3)C2=O)cc1 | / | -9 | -27 | / | 2533 | / | /
O=C(O)c1ccc(CN2C(=O)c3ccc(C(=O)O)cc3C2=O)cc1 | 3.8 | 4 | -18 | 7 | 3828 | -1 | 8
CC(C)CCn1nnnc1CN1CCN(c2ccc(F)cc2)CC1 | 1.2 | 1 | -25 | 5 | 3585 | 7 | 9
Cc1nn(CC(=O)NC(=O)NC2CCCC(C)C2C)c(=O)c(C#N)c1C (stereo unspecified) | 2.1 | -4 | -17 | 4 | 6168 | 7 | 6
CCc1ccc2nc(N(CCCN(C)C)C(=O)c3ccc(S(=O)(=O)N(C)C4CCCCC4)cc3)sc2c1 | -2.8 | 30 | -7 | -2 | 6101 | 10 | 8
CCOC(=O)CNC(=O)N1CCCC(C(=O)c2cccc(Cl)c2)C1 (stereo unspecified) | 2.9 | 5 | -9 | 3 | 2168 | 10 | 3
Cc1ccccc1C(=O)NNC(=O)/C=C/c1ccccc1 | 5.4 | -7 | -15 | -3 | 2704 | 1 | 8
CC1CN(c2cnn(C(C)C)c(=O)c2Cl)CC(C)O1 (stereo unspecified) | 2.9 | -1 | -3 | 0 | 2994 | 3 | -1
CN(C)CCCN(C(=O)COc1ccccc1)c1nc2ccc(Cl)cc2s1 | -5.4 | -1 | -18 | -2 | 6364 | 0 | 2
O=S1(=O)N=C(N(CCO)/N=C/C=C/c2ccccc2)c2ccccc21 | / | -8 | -11 | / | 2439 | / | /
Cc1cc(/C=C2/SC(=S)N(c3cccc(Cl)c3)C2=O)c(C)n1-c1cccnc1 | 0.5 | 9 | -25 | -6 | 8722 | 2 | 11
COc1ccc(N2CCN(C3CCCN(Cc4ccc(F)cc4Cl)C3)CC2)cc1 (stereo unspecified) | 8.3 | 6 | 2 | 12 | 3316 | -1 | -2
Cc1nn2c(NC(C)C)c3c(nc2c1-c1ccccc1)CCC3 | 3.6 | -5 | -16 | 22 | 4066 | 0 | 5
Cc1nc2c(-c3ccc(F)cc3)c(C)nn2c(N2CCOCC2)c1C | -3.7 | 0 | 12 | -5 | 4687 | / | /
COc1ccc(C2=CC(=O)CC(c3ccc(OC)c(OC)c3)C2)cc1 (stereo unspecified) | 15 | / | / | 19 | / | 16 | 8
CCCN(Cc1cc2cc(OC)ccc2[nH]c1=O)C(=O)c1ccncc1 | 1.4 | -3 | 4 | -6 | 3452 | 1 | 2
Cc1ccc(-c2cc(C(=O)O)n(-c3ccc(S(N)(=O)=O)cc3)n2)cc1 | 8.2 | -5 | -2 | 8 | 2821 | 9 | 2
O=C(Nc1cn(-c2ccccc2)nc1-c1ccccc1)c1ccccc1 | 16 | -4 | -28 | -17 | 3029 | 1 | -5
CC(C)c1nnc(NC(=O)C2CCCN2C(=O)Nc2cccc(Cl)c2)s1 (stereo unspecified) | 6.4 | -5 | -9 | 11 | 5465 | -3 | -3
CC1CCN(S(=O)(=O)c2ccc(NC(=O)CN3CCCC3)cc2)CC1 | 1.7 | -7 | -17 | 7 | 6120 | -7 | 4
COc1ccc(/C=N/OC/C(O)=C(\C#N)c2nc3ccccc3[nH]2)cc1OC | / | 0 | -6 | / | 2531 | / | /
C=CCOC(=O)C1=C[C@H](c2cn(C(C)=O)c3ccccc23)[C@@H](CCCO)[C@H](OCC)O1 | -3.5 | 3 | -18 | -7 | 4038 | 4 | 6
CC(C)OC(=O)C1C(=O)CC(C)(O)C(C(=O)OC(C)C)C1c1cccnc1 (stereo unspecified) | 2.5 | 0 | -14 | 2 | 6113 | 9 | 14
COc1ccc(Cl)cc1NC(=O)COC(=O)c1cc(NS(=O)(=O)c2cccs2)ccc1O | -18 | -13 | -15 | -21 | 7976 | 3 | 6
CN1CCN(CCCNC(=S)Nc2ccc(F)c(Cl)c2)CC1 | 2.7 | -3 | -12 | 1 | 4864 | 0 | 8
Cc1nc(S(=O)(=O)Nc2ccccc2C(=O)NCC2CC2)cn1C | 3.0 | -2 | -15 | 4 | 4853 | 3 | 6
Cc1cc(Cl)cc(Cl)c1OCC(=O)NCc1ccco1 | 8.4 | 4 | -20 | -7 | 3868 | 4 | 10
CSc1cccc(NCc2ccc([N+](=O)[O-])cc2)c1 | -3.9 | -6 | -18 | -13 | 3498 | -9 | 1
Oc1cccc2ccc(/C=C/c3cccs3)nc12 | 0.7 | 2 | -45 | -20 | 10079 | -4 | -2
CCOc1ccccc1N(CC(=O)NCCc1ccc(OC)c(OC)c1)S(=O)(=O)c1ccccc1 | 3.9 | -5 | -7 | 6 | 3604 | 13 | 11
CN(C)CCCNc1cn[nH]c(=O)c1Cl | 2.8 | -2 | -8 | 0 | 5289 | 2 | 6
